Screening data from PubChem BioAssay.
VACV Venus inh = vaccinia inhibition (Venus reporter); Vaccinia virus Venus reporter expression, fluorescence; Potency, µM (series often up to 36.5 µM), without a hit: top-dose activity change, negative = inhibition, hits mostly inhibitors; hit rate 0.46% among 330,000; active means well fitted inhibition curve with a large enough effect; inconclusive means small, poorly fitted or top-dose-only effect; inactive means no such curve, though single readings can be large or run the other way; tested in A549 cells; further: nearly all actives have a fitted effect of over 30% in size; inactives centre near -10
VACV mCherry inh = vaccinia inhibition (mCherry reporter). hit rate 0.63% among 310,000. Vaccinia virus mCherry reporter infection, fluorescence; about a quarter of the inactives have no number. Potency, µM (highest dose often 36.5 µM), for the others: at the top dose activity change, negative = inhibition, actives largely listed as inhibitors; active = well fitted inhibition curve with a large enough effect; inconclusive = small, poorly fitted or top-dose-only effect; inactive = no such curve, though single readings can be large or run the other way; tested in A549 cells; further: nearly all actives have a fitted effect of over 35% in size; inactives centre near -10
An asterisk follows results filed as active; i = inactive; u = inconclusive; x = no result given; & = joins results of further samples; [ ] = dose if it differs, or a comment. On the % scale 0 is the no-effect control and ±100 the full control effect; potency means the concentration at half of the fitted maximal effect.

Start of the data: the first 6 compounds (preview)
| no. | structure | VACV Venus inh | VACV mCherry inh |
| --- | --- | --- | --- |
| 1 | CCN(C(=O)c1ccc(Cl)c([N+](=O)[O-])c1)c1ccccc1 | -5% | -14% |
| 2 | Cc1ccsc1C(=O)N/N=C/C=C/c1ccccc1[N+](=O)[O-] | -6% | -2% |
| 3 | Cc1ccc(C)c(NC(=S)c2ccc3ccccc3n2)c1 | -14% | -2% |
| 4 | COc1cc(NC(=O)CNC(=O)Cn2c(C)cc3ccccc3c2=O)cc(OC)c1OC | -14% | i |
| 5 | O=C(COc1cc2oc(=O)c3c(c2cc1Cl)CCCC3)NCc1cccnc1 | -10% | i |
| 6 | COc1ccc(C(=O)NC(=S)Nc2cccc3cc(O)ccc23)cc1OC | -9% | -13% |

The whole of this part, repeating the preview:
| no. | structure | VACV Venus inh | VACV mCherry inh |
| --- | --- | --- | --- |
| 1 | CCN(C(=O)c1ccc(Cl)c([N+](=O)[O-])c1)c1ccccc1 | -5% | -14% |
| 2 | Cc1ccsc1C(=O)N/N=C/C=C/c1ccccc1[N+](=O)[O-] | -6% | -2% |
| 3 | Cc1ccc(C)c(NC(=S)c2ccc3ccccc3n2)c1 | -14% | -2% |
| 4 | COc1cc(NC(=O)CNC(=O)Cn2c(C)cc3ccccc3c2=O)cc(OC)c1OC | -14% | i |
| 5 | O=C(COc1cc2oc(=O)c3c(c2cc1Cl)CCCC3)NCc1cccnc1 | -10% | i |
| 6 | COc1ccc(C(=O)NC(=S)Nc2cccc3cc(O)ccc23)cc1OC | -9% | -13% |
| 7 | O=C(Cc1c(C(=O)O)[nH]c2ccccc12)NCCN1CCN(c2ccccc2F)CC1 | 7% | 2% |
| 8 | Nc1nnc(CC(=O)N/N=C/c2ccccc2OCc2ccc(F)cc2)s1 | -4% | i |
| 9 | COc1ccc(-c2cccc(C(=O)N3CCOCC3)c2)cc1 | -14% | i |
| 10 | COCc1cccc(-c2csc(C(C)(NC(C)=O)c3ccccc3)n2)c1 (stereo not given) | u | u |
| 11 | CCc1c(C)c2ccc(O)c(CN3CCN(c4ccccc4)CC3)c2oc1=O | -17% | -19% |
| 12 | FC(F)(F)c1cnc(-c2cc3c(c(OCC4CCCO4)c2)OCCN(Cc2cccn2-c2nccs2)C3)c(Cl)c1 (stereo not given) | -2% | -11% |
| 13 | CCOc1cc(CNCc2ccncc2)cc(Br)c1OCc1ccccc1F | u | -1%[1.46 µM] |
| 14 | Cc1ccc(OCC(=O)NC(=S)Nc2cccc(NC(=O)c3ccc(Cl)cc3Cl)c2)cc1 | -10% | -26% |
| 15 | C=CCCCCCCCCCCCc1ccco1 | 23% | i |
| 16 | NNC(=O)CCS(=O)(=O)c1ccc2ccccc2c1 | u | u |
| 17 | COc1ccc(-c2nc(C#N)c(N3CCN(c4ccccc4)CC3)o2)cc1 | -4% | -18% |
| 18 | Cc1cc(C)c(S(=O)(=O)N2CCN(C(=O)CCn3nc(C)c(C)c3C)CC2)c(C)c1 | -27% | -18% |
| 19 | CCc1cccc(NC(=O)CC2Oc3ccc(C)cc3NC2=O)c1 (stereo not given) | -7% | -18% |
| 20 | Cc1cc(C)n(C(=O)CNc2cccc(Cl)c2C)n1 | -13% | -13% |
| 21 | Cc1nn(Cc2ccccc2)c2ncccc12 | -14% | -4% |
| 22 | O=C(NCC1CCCO1)C1CC(=O)N(c2ccc(Cl)cc2)C1 (stereo not given) | -14% | -11% |
| 23 | ClC1=C(Cl)C2(Cl)C3C4C=CC(C4)C3C1(Cl)C2(Cl)Cl (stereo not given) | 0% | i |
| 24 | COc1ccc(C)cc1NC(C)C(=O)c1c[nH]c2ccccc12 (stereo not given) | -20% | -16% |
| 25 | CCCN(CC(=O)Nc1ccc(F)c(F)c1F)C(=O)C1=COCCO1 | -12% | 0% |
| 26 | COc1ccc(C2NC(=O)NC(C)=C2C(=O)OCc2ccccc2)cc1 (stereo not given) | -7% | -15% |
| 27 | COc1ccc(OC)c(/C=N/NC(=O)CCN2CCN(C(c3ccccc3)c3ccccc3)CC2)c1 | u | u |
| 28 | O=C(c1cc(-c2ccc(O)cc2)on1)N1CCN(c2ccccc2)CC1 | -24%&-14% | u |
| 29 | N#Cc1c2c(c(NCc3cccnc3)n3c1nc1ccccc13)CCC2 | -11% | -14% |
| 30 | COc1ccccc1NC(=O)Nc1nn(C)c2cccc(N(C)C)c12 | u | -21% |
| 31 | Cc1ccc(Nc2c(-c3ccc(N4CCOCC4)cc3)nc3ccc(C)cn23)cc1 | -7% | -3% |
| 32 | COc1ccc(Oc2ccc(C(F)(F)F)cc2NC(=O)CC(CC(=O)O)c2ccccc2)cc1 (stereo not given) | -8% | i |
| 33 | CC(=O)Nc1c(Nc2ccccc2)c2ccccc2oc1=O | -15% | -14% |
| 34 | CCN(CC)S(=O)(=O)c1nnc(NC(=O)c2ccccc2Cl)s1 | -10% | -9% |
| 35 | COc1ccc(CNC(=O)CCC2N=C3c4ccccc4N=C(SCC(=O)NCC4CCCO4)N3C2=O)cc1 (stereo not given) | -12% | -13% |
| 36 | COc1ccc(C2C(C(=O)Nc3ccc(OC)c(OC)c3)c3ccccc3C(=O)N2C)cc1 (stereo not given) | -20% | -27% |
| 37 | CS(=O)(=O)N1CCC(Oc2ccccc2C(=O)N2CCN(CC3CC3)CC2)CC1 | -10% | -8% |
| 38 | CCCCCC(=O)N1C[C@H](O)[C@@H](n2cc(COC(=O)c3ccccc3)nn2)C[C@@H]1c1ccccc1 | -11% | i |
| 39 | O=C(Cc1ccccc1)Nc1ccc(C(=O)NCc2ccccc2)cc1 | -2% | -8% |
| 40 | CCOc1ccc(CNC(=O)C2CCCN(c3nc4c(C)cc(C)cc4s3)C2)cc1 (stereo not given) | -19% | -21% |
| 41 | Cc1ccc(C2(C)NC(=O)N(CC(=O)N(c3ccccc3)C3CCS(=O)(=O)C3)C2=O)cc1 (stereo not given) | 18% | -8% |
| 42 | CCN(CC)S(=O)(=O)c1ccc(Cl)c(NC(=O)COc2ccc(OC)cc2[N+](=O)[O-])c1 | -23% | -20% |
| 43 | CC1CCCCC1NC(=O)c1cc(Cl)nc2ccccc12 (stereo not given) | -4% | i |
| 44 | CCOc1ccc(S(=O)(=O)N2CCN(c3ccccc3F)CC2)c2cccnc12 | -26% | -3% |
| 45 | CCOC(=O)CSCCOc1ccc(C=C2C(=O)NC(=O)NC2=O)cc1OC | -14% | -4% |
| 46 | CCC1CCCCN1C(=S)Nc1ccc(C(C)=O)cc1 (stereo not given) | -9% | -12% |
| 47 | O=C(COC(=O)CCC(=O)c1cccs1)NCc1ccccc1 | 2% | 9% |
| 48 | Cc1ccc(Nc2ccc(S(=O)(=O)N3CCOCC3)cc2[N+](=O)[O-])cc1C | -22% | -23% |
| 49 | CCOCCCNC(=O)C(c1ccccc1)N(Cc1cccs1)C(=O)CNC(=O)c1ccccc1 (stereo not given) | -6% | -20% |
| 50 | COc1ccc2c(c1)C(c1ccccc1)=NNC(c1ccco1)=N2 | -8% | -15% |
| 51 | NC(c1csc(NC(=O)Nc2ccc(OC(F)(F)F)cc2)n1)C1CCCCC1 (stereo not given) | u | u |
| 52 | O=C(c1cccc(NS(=O)(=O)c2cccc(F)c2)c1)N1CCN(c2ccccc2)CC1 | -10% | -15% |
| 53 | Cc1ccc(-c2cn3c(n2)sc2cc(C(=O)NC4CCCCCC4)ccc23)cc1 | -19% | u |
| 54 | Cc1cccc(OCCCCCN2CCOCC2)c1C | -2% | i |
| 55 | COc1cccc(C(=O)NCc2cn3ccccc3n2)c1 | -5% | -11% |
| 56 | CCN(CC)c1nc(C)c2c(c1C#N)CC(C)(C)OC2 | 2% | x |
| 57 | C/C=C\C(=O)Nc1cccc(C2=NOC3(C2)C[C@@H](C(N)=O)N(C(=O)CCCCC)C3)c1 (stereo not given in full) | -12% | -13% |
| 58 | CCC(C)NC(=O)CCc1c(C)nc2cc(-c3ccc(OC)cc3OC)nn2c1C (stereo not given) | -6% | 8% |
| 59 | CCC(=O)N1CCc2cc(Br)cc(S(=O)(=O)CCC(=O)NCc3ccc(C)cc3)c21 | -12% | -10% |
| 60 | CC(=NCCN1CCCCC1)c1c(O)n(-c2ccccc2)c(=O)[nH]c1=O | -5% | -15% |

Copied from the list.
#49 | VACV mCherry inh: -20%
#57 | VACV Venus inh: -12%

The list goes on:
| no. | structure | VACV Venus inh | VACV mCherry inh |
| --- | --- | --- | --- |
| 61 | NC(C(=O)O)C(O)C(=O)O (stereo not given) | -3% | -9% |
| 62 | COc1ccc(NC(=O)CSc2nnc(Cc3cccs3)n2C)cc1 | -2% | -7% |
| 63 | COc1ccccc1OCc1ccc(C(=O)N/N=C/c2ccco2)cc1 | -6% | -4% |
| 64 | O=C(O)CSC(NC(=O)c1cccnc1)(C(F)(F)F)C(F)(F)F | -1% | -7% |
| 65 | O=C(NC(Cc1c[nH]c2ccccc12)C(=O)O)c1cccs1 (stereo not given) | -5% | -1% |
| 66 | CCOc1ccc(-c2nnc(NC(=O)Cc3ccc(OC)cc3)o2)cc1 | -5% | -9% |
| 67 | O=C(Cc1c(Cl)cccc1Cl)OCC(=O)N1CCN(C(=O)c2ccco2)CC1 | -3% | i |
| 68 | Cc1ccc(C)c(-n2c(CCC(=O)O)ccc2-c2ccc(Cl)cc2)c1 | -13% | -11% |
| 69 | O=C(Nc1ccc(Br)c(Cl)c1)c1ccco1 | -16% | -6% |
| 70 | CCOC(=O)C1=CN(Cc2cccc(F)c2)S(=O)(=O)N(C)C1c1ccc2ccccc2c1 (stereo not given) | -10% | u |
| 71 | CSc1ccccc1Sc1cc(C(=O)O)c2ccccc2n1 | -16% | i |
| 72 | COc1ccc(Nc2cc(=O)n(-c3ccccc3)c3c2c(=O)n(C)c(=O)n3C)cc1 | 16% | -3% |
| 73 | O=C(NCc1cccnc1)c1cc(C2CCCN(C(=O)CCCc3ccccc3)C2)on1 (stereo not given) | -10% | i |
| 74 | Cc1cc(Cl)ccc1OCC(=O)NCCCCc1ccccc1 | 0% | -8% |
| 75 | O=c1c2ccccc2n(Cc2ccc(Cl)cc2)c(=O)n1Cc1ccco1 | -4% | x |
| 76 | CCCCCn1c(=O)[nH]c2cc(C(=O)Nc3ccc(OC)cc3)ccc2c1=O | -5% | -8% |
| 77 | O=C(N/N=C/c1cccc([N+](=O)[O-])c1)c1cnccn1 | -17% | -15% |
| 78 | O=C(Cn1c2ccccc2c(=O)c2ccccc21)N/N=C/c1cc([N+](=O)[O-])ccc1N1CCCCCC1 | -1% | -5% |
| 79 | COc1ccc2c(c1)C(=NN)c1cc(OC)ccc1-2 | -19% | -16% |
| 80 | O=C(NCc1ccccc1Cl)C(=O)c1cn(CC(=O)N2CCOCC2)c2ccccc12 | -18% | i |
| 81 | COc1ccc(CC(=O)OCCc2cc3cc(OC)c(OC)cc3c(=O)o2)cc1 | -28% | 0% |
| 82 | CN(C)C(CNS(=O)(=O)c1ccc(Cl)cc1F)c1ccco1 (stereo not given) | -14% | -21% |
| 83 | N#Cc1ccc(CSCC(=O)NN=C2CCCC2)cc1 | -3% | -2% |
| 84 | COc1cccc([C@@H]2Oc3ccc(OC)cc3C(=O)[C@H]2OC(=O)Nc2cc(OC)c(OC)c(OC)c2)c1 | u | 0% |
| 85 | CSCCC(=O)N1CCCC(CO)(CCCc2ccccc2)C1 (stereo not given) | -7% | -4% |
| 86 | COc1ccc(Oc2c(C)oc3c(CN4CCOCC4)c(O)ccc3c2=O)cc1 | -2% | -10% |
| 87 | Cc1cc(C)nc(NS(=O)(=O)c2ccc(NC(=S)NC(=O)c3ccco3)cc2)n1 | 1% | 7% |
| 88 | CNNC | 7% | 0% |
| 89 | CCOc1ccc(NC(=O)CCSc2nc3c(c(CC)c2C#N)C(=O)CC(C)(C)C3)cc1 | -21% | u |
| 90 | O=C(Nc1ccc(N2CCN(C(=O)c3ccco3)CC2)c(Cl)c1)c1cccs1 | u | x |
| 91 | Cc1ccc(-n2c(SCc3ccccc3C)nc3[nH]ncc3c2=O)cc1C | -19% | -15% |
| 92 | Cc1cc(OC(=O)c2cccc([N+](=O)[O-])c2)c(C)cc1CN1CCOCC1 | -9% | -5% |
| 93 | CCc1c(O)nc(SCC(=O)N(CC)CC)[nH]c1=O | 1% | 3% |
| 94 | CCN1CCN(c2ccc(S(=O)(=O)N3CCCCC3)cc2NC(=O)CCNC(C)=O)CC1 | -5% | -8% |
| 95 | Cc1ccc(C)c(NC(=O)CSc2c3c(nc4ccc(Cl)cc24)CCCC3)c1 | -21% | -24% |
| 96 | Cc1ccc(C)c(NC(=O)c2cc(S(=O)(=O)N3CCCCCC3)ccc2F)c1 | -8% | -4% |
| 97 | CCOc1ccc(C(=O)OCn2nnc3ccccc3c2=O)cc1OC | -5% | -11% |
| 98 | CN(C)c1ccc(/C=C/c2ccnc3ccccc23)cc1 | 15% | 14% |
| 99 | O=C(CCNC(=O)c1ccccc1Cl)Nc1ccc(S(=O)(=O)N2CCOCC2)cc1 | 2% | i |
| 100 | CCc1ccc(OCCCOc2ccc(C=O)cc2)cc1 | -12% | -20% |
| 101 | CN(CC(=O)Nc1ccc(Cl)c(C(F)(F)F)c1)C(=O)C1CC(=O)N(c2ccc3c(c2)OCCO3)C1 (stereo not given) | u | i |
| 102 | COc1cc(OC)c2c(N)c(C#N)c(C(F)(F)C(F)(F)F)nc2c1 | -18% | -18% |
| 103 | C[n+]1ccc(-c2ccccc2)c2ccccc21 | -18% | -7% |
| 104 | COc1cccc(C(c2nnnn2C2CCCC2)N2CCC3(CC2)C(=O)NCN3c2ccccc2)c1OC (stereo not given) | -3% | i |
| 105 | CC(C)C(c1nnnn1C1CCCC1)N1CCOCC1 (stereo not given) | -3% | -6% |

2 entries from above, in transposed form.
(9) COc1ccc(-c2cccc(C(=O)N3CCOCC3)c2)cc1
(10) COCc1cccc(-c2csc(C(C)(NC(C)=O)c3ccccc3)n2)c1 (stereo not given)

Assay by compound,9,10
VACV Venus inh,-14%,u
VACV mCherry inh,i,u
